MARV entry inh: Marburg virus entry inhibition. Marburg virus pseudotyped entry inhibition, cell reporter; control for the full effect not named in the record; about a third of the inactives were read at about 46 µM. Potency, µM (series often up to 37.8 µM), for inactives: at the top dose activity change, negative = inhibition, usual class: inhibitors. 300,000 compounds, 1.8% hits. AID 540276; active = well fitted inhibition curve with a large enough effect; inconclusive = small, poorly fitted or top-dose-only effect, or effect the other way; inactive = flat fitted curve, though single readings scatter; tested in HEK293 cells; about a fifth of its hits are not listed in these tables; note: % is set by controls: 0 for no effect and ±100 for the full control effect; luciferase read-out
2A StopGo: FMDV 2A StopGo reporter, luciferase signal; 410,000 compounds, 1.2% hits; AID 1159524; Potency, µM (titrated, usually from 57.9 µM), inactives show top-dose signal change, negative = less light; human cells with a luciferase reporter of 2A StopGo recoding; control for the full effect not named in the record; active = well fitted falling curve with a large enough effect; inconclusive = small, poorly fitted or top-dose-only effect; inactive = no such curve, though single readings can be large or run the other way; tested in HEK293T cells; note: % is set by controls: 0 for no effect and ±100 for the full control effect; nearly all actives have a fitted effect of over 45% in size; luciferase light after 4 h
Cruzain Triton: cruzain (T. cruzi) inhibition with detergent; 200,000 compounds, 0.43% hits; P25779; purified cruzain, Z-FR-AMC fluorescence, 0.01% Triton; Potency, µM, inactives show max response, negative = inhibition, usual class: inhibitors; active = well fitted curve in the direction sought with a large enough effect; inconclusive = small, poorly fitted or top-dose-only effect, or another doubt; inactive = no such curve, though single readings can be large; an effect the other way counts as inactive or inconclusive;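 note: plate controls were neutral wells for no effect and buffer without enzyme for full effect; nearly all actives have a fitted effect of over 40% in size; top concentration of the series not given in the record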
Target sequence (P25779 123-467 limits assumed): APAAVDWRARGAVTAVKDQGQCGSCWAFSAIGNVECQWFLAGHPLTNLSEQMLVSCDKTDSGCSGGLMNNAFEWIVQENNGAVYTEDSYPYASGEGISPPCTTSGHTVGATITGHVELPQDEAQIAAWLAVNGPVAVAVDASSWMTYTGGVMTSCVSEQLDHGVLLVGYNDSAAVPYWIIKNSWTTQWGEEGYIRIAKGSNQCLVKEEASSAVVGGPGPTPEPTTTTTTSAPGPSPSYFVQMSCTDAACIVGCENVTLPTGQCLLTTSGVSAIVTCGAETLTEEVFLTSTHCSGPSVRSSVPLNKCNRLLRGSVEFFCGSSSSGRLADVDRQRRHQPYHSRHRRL
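Detergent-containing arm of a paired screen for aggregation-based inhibition: 0.01% Triton X-100 present. Cruzain at 1.5 nM cleaved 2 uM Z-FR-AMC at pH 5.5 with 5 mM DTT; AMC fluorescence gain over 60 s measured activity.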
SARS PLP yeast: blocks SARS-CoV papain-like protease in a yeast assay | Potency, µM (highest dose often 32.9 µM), for inactives: top-dose activity, positive = growth rescue | 330,000 compounds, 0.19% hits | S. cerevisiae expressing SARS-CoV PLpro, growth rescue; control for the full effect not named in the record; note: 0% is about no effect; nearly all actives have a fitted effect of over 55% in size; growth read by luminescence after 48 h
Lassa entry inh: blocks Lassa virus binding to or entry into cells. 300,000 compounds, 1.2% hits. Potency, µM (doses to about 37.9 µM), for inactives: top-dose activity change, negative = inhibition, usual class: inhibitors. Lassa virus pseudotype entry inhibition, cell reporter; control for the full effect not named in the record; active means well fitted inhibition curve with a large enough effect; inconclusive means small, poorly fitted or top-dose-only effect, or effect the other way; inactive means flat fitted curve, though single readings scatter; tested in HEK293 cells; note: % is set by controls: 0 for no effect and ±100 for the full control effect; nearly all actives have a fitted effect of over 50% in size; luciferase read-out
RE007 growth inh: less growth of the S. pombe RE007 Vpr strain | S. pombe RE007 Vpr strain, BacTiter-Glo ATP luminescence, 24 h; control for the full effect not named in the record | Potency, µM (highest dose often 92.2 µM), for the others: at the highest dose activity change, negative = less growth | 360,000 compounds, 0.21% hits | AID 651644; active = well fitted falling curve with a large enough effect; inconclusive = small, poorly fitted or top-dose-only effect; inactive = no such curve, though single readings can be large or run the other way;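 note: % is set by controls: 0 for no effect and ±100 for the full control effect; nearly all actives have a fitted effect of over 50% in size; the assay follows cell death caused by Vpr and the record does not say whether a fall means rescue or toxicity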
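Fission yeast RE007 carrying one integrated HIV-1 vpr copy, seeded at OD 0.01 in PMG+AL medium with 23 nL pinned compound. Grown 24 h at 30 degrees; viability read by BacTiter-Glo luminescence after 5 min.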
Cruzain noTriton: cruzain (T. cruzi) inhibition without detergent; 200,000 compounds, 2.3% hits; Potency, µM, without a hit: max response, negative = inhibition, hits mostly inhibitors; purified cruzain, Z-FR-AMC fluorescence, no detergent; active = well fitted curve in the direction sought with a large enough effect; inconclusive = small, poorly fitted or top-dose-only effect, or another doubt; inactive = no such curve, though single readings can be large; an effect the other way counts as inactive or inconclusive;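 note: plate controls were enzyme without inhibitor for no effect and buffer without enzyme for full effect; nearly all actives have a fitted effect of over 40% in size; top concentration of the series not given in the record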
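Purified cruzain at 1.5 nM, pre-incubated 15 min with compound at room temperature in 100 mM sodium acetate pH 5.5, 5 mM DTT, 0.00005% Triton X-100. Reaction started with 2 uM Z-FR-AMC; AMC fluorescence increase over 60 s gives rate.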
NS1 function inh: blocks influenza NS1 protein function | S. cerevisiae slowed by influenza A NS1, growth recovery by OD600 | Potency, µM (highest dose often 46.1 µM), for inactives: at the highest dose activity, positive = more growth | 270,000 compounds, 0.4% hits | AID 2326; note: actives are rising curves; nearly all actives have a fitted effect of over 50% in size
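S. cerevisiae expressing influenza A NS1, grown in glucose, washed, then diluted 1:100 into pH 6.0 -URA galactose medium with 23 nl compound. Growth recovery read as OD600; NS1-free strain serves as control.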
* = called active by the depositor; ? = inconclusive; . = no result given; & = joins results of further samples; [ ] = remark or other dose. Unless noted, calls come from the whole dose curve; as a rule, active means well fitted rising curve with a large enough effect; inconclusive means small, poorly fitted or top-dose-only effect; inactive means no such curve, though single readings can be large or run the other way. Potency is the fitted concentration of half-maximal effect. Hits appear at their usual frequency; overall some 4.6% were active at least once.

canonical_smiles	MARV entry inh	2A StopGo	Cruzain Triton	SARS PLP yeast	Lassa entry inh	RE007 growth inh	Cruzain noTriton	NS1 function inh
COc1ccccc1/C=C/C(=O)NCc1cccnc1	.	-9.4%	.	0.3%	.	0.7%	.	6.2%
Nc1c(C(=O)Nc2ccc(OC(F)(F)F)cc2)nnn1Cc1ccccc1	-5.0%[46.1 µM]	-4.4%	0.9%	.	-16.2%[46.1 µM]	.	-3.1%	.
COc1ccc(OC)c(NC(=O)c2ccc(-c3cccs3)cc2)c1	20.2%[46.1 µM]	-12.2%	.	-5.4%	2.6%[46.1 µM]	-6.5%	.	.
O=C(Nc1ccnn1C1CCN(Cc2cccc(OCCO)c2)CC1)c1cccc(F)c1	-10.4%	-16.3%	.	-6.6%	-20.8%	-4.5%	.	4.0%
Cc1ccc(N/C=C/C(=O)c2ccccc2)cc1C	?	?	-10.9%	3.4%	?	-18.3%	-22.6%	-21.5%
O=C(NCc1ccco1)C(=O)NCc1ccccc1Cl	2.1%	56.2%[activator]	-0.2%	-2.7%	28.1%	4.8%	3.5%	2.8%
C[C@]12CCC(=O)C=C1C=C[C@@H]1[C@@H]2CC[C@@]2(C)[C@H]1CC[C@@]21CCC(=O)O1	.	?	.	-2.7%	.	32.6%	.	-7.1%
COCC(C)n1c(C)cc(C(=O)COC(=O)c2nn(C)c(=O)c3ccccc23)c1C (stereo not given)	5.8%	?	.	-1.1%	2.3%	9.8%	.	.
CCCn1cnc2cc(NC(=O)c3cccs3)ccc21	0.0%[46.1 µM]	16.9%	.	1.1%	?	-13.7%	.	.
CCN(CC)S(=O)(=O)c1ccc(N)cc1	?	-8.4%	.	0.5%	-16.1%	10.8%	.	7.7%
COc1cc2c(=O)n(Cc3ccccc3)c(=O)n(CC(=O)Nc3cc(C(F)(F)F)ccc3Cl)c2cc1OC	9.5%[46.1 µM]	-20.2%	6.9%	.	8.0%[46.1 µM]	.	3.0%	.
CN1C(=O)c2ccc(C(=O)Nc3cccnc3)cc2C1=O	-10.3%[46.1 µM]	2.4%	.	-2.5%	?	-4.5%	.	7.6%
Nc1cccc(C(=O)Nc2ccco2)c1	-17.9%	32.7%[activator]	1.8%	-2.5%	9.9%	0.2%	4.2%	4.4%
O=C(CCCl)Nc1nc2c(s1)CCc1ccccc1-2	?	-16.3%	.	-12.7%	?	-14.2%	.	-40.0%
COc1ccc(NS(=O)(=O)c2ccc(O)c(C(=O)OCC(=O)N3CC(C)OC(C)C3)c2)cc1 (stereo not given)	-2.1%&15.2%	0.0%	-0.6%	11.3%	-0.2%	-2.5%	10.4%	-43.9%
COc1ccc(NC(=S)N2CCCC(c3nc4ccc(C)cc4[nH]3)C2)c(OC)c1 (stereo not given)	-9.4%	-5.5%	.	1.7%	-10.3%	-16.6%	.	-5.7%
CCOC(=O)c1sc2nc(C)nc(Nc3ccccc3)c2c1C	?	-16.9%	.	-1.4%	?	-23.0%	.	.
CN(C)c1nc(-c2cccnc2)nc(-c2ccc(Cl)cc2)c1C#N	0.4%[46.1 µM]	10.2%	.	-11.8%	-0.9%[46.1 µM]	-2.4%	.	5.4%
N#Cc1nc(-c2ccccc2)oc1NCCN1CCCCC1	5.1%	9.3%	0.5%	-2.6%	1.5%	-8.9%	10.7%	-5.7%
O=C(Nc1ccc(F)cc1)Nc1cnccn1	?	3.0%	.	0.7%	2.9%[46.1 µM]	11.5%	.	-2.5%
CNC(=O)Nc1ccc(S(N)(=O)=O)cc1	6.8%[46.1 µM]	16.9%	.	1.2%	-0.2%[46.1 µM]	7.3%	.	-3.9%
COc1cccc2c(C)c(C(=O)O)[nH]c12	-3.1%	?	-12.3%	9.3%	4.2%	21.9%	-14.2%	-10.3%
O=C(NC1=CC(=O)c2ccccc2C1=O)c1ccccc1	10µM*	?	.	.	?	12.6µM*	.	.
O=S(=O)(c1ccccc1Cl)N1CCCC1c1nc(-c2cccc(Cl)c2)no1 (stereo not given)	-15.8%	-17.1%	-3.4%	0.5%	-0.6%	-2.2%	2.5%	14.6%
COc1cc(=O)[nH]c(SCC(=O)Nc2nc3c(s2)CCCC3)n1	-0.3%[46.1 µM]	5.5%	.	-0.3%	-21.7%	-20.8%	.	2.5%
CCCCNC(=O)c1nn2c(C(F)(F)F)cc(-c3ccc(OC)cc3)nc2c1Br	3.2%[46.1 µM]	-23.8%	.	12.0%	-24.2%[46.1 µM]	-8.6%	.	15.3%
O=C(O)CCCC(=O)N1N=C(c2c(-c3ccccc3)c3cc(Cl)ccc3[nH]c2=O)CC1c1cccs1 (stereo not given)	-23.8%	-17.0%	-5.9%	11.7%	13.8%	8.7%	2.8%	9.0%
CCC(=O)NNc1ncnc2c1cnn2-c1cccc(C)c1	-8.7%	18.4%	.	0.9%	28.1%	-8.0%	.	.
CN(C(=O)c1ccccn1)C1(C(=O)NC2CCCCC2)CCCCC1	?	9.2%	6.5%	3.3%	7.7%	-14.8%	5.5%	8.3%
O=[N+]([O-])c1ccc(Cl)c(S(=O)(=O)/N=C(/c2ccccc2)N2CCOCC2)c1	2.6%[46.1 µM]	-8.3%	.	1.7%	?	-21.9%	.	.

Record cards (already shown). Order of screens: MARV entry inh, 2A StopGo, Cruzain Triton, SARS PLP yeast, Lassa entry inh, RE007 growth inh, Cruzain noTriton, NS1 function inh
Shown for O=C(Nc1ccnn1C1CCN(Cc2cccc(OCCO)c2)CC1)c1cccc(F)c1 : -10.4%, -16.3%, ., -6.6%, -20.8%, -4.5%, ., 4.0%
Shown for COc1ccc(NS(=O)(=O)c2ccc(O)c(C(=O)OCC(=O)N3CC(C)OC(C)C3)c2)cc1 (stereo not given) : -2.1%&15.2%, 0.0%, -0.6%, 11.3%, -0.2%, -2.5%, 10.4%, -43.9%
Shown for O=C(NC1=CC(=O)c2ccccc2C1=O)c1ccccc1 : 10µM*, ?, ., ., ?, 12.6µM*, ., .

Additional compounds follow.
canonical_smiles	MARV entry inh	2A StopGo	Cruzain Triton	SARS PLP yeast	Lassa entry inh	RE007 growth inh	Cruzain noTriton	NS1 function inh
Cc1nc(SCC(C)C)[nH]c(=O)c1Cc1ccccc1	7.4%	-11.1%	-3.2%	-1.3%	-1.0%	19.0%	-3.2%	-6.3%
CCc1nnc(NC(=O)c2ccc(OC)cc2)s1	16.8%	73.5%[activator]	.	1.9%	?	19.1%	.	.
C[C@H](NC(=O)c1ccc(Br)cc1)C(=O)NCc1ccc(S(N)(=O)=O)cc1	5.5%[46.1 µM]	-9.5%	.	0.1%	9.9%[46.1 µM]	-3.4%	.	.
COc1ccc(CC(=O)Nc2ccc(-c3cn4ccccc4n3)cc2)cc1	-24.2%	0.0%	-19.7%	6.3%	?	0.7%	3.9%	-7.5%
Cc1ccc(C(=O)Nc2ccc(-n3c(C)nc4ccccc4c3=O)cc2)cc1[N+](=O)[O-]	.	?	0.9%	.	?	.	21.1%	.
CN(c1ccc(C(=O)NCc2ccncc2)cc1)S(=O)(=O)c1ccc(Cl)cc1	?	0.0%	.	0.2%	-7.0%	-5.9%	.	0.5%
O=c1c2cn[nH]c2[nH]c(=S)n1-c1ccccc1Cl	8.1%[46.1 µM]	18.1%	.	4.0%	-0.3%	?	.	.
CCOc1ccccc1NC(=O)CSc1nccn1-c1cccc(C)c1	.	?	-4.0%	.	?	.	-2.5%	.
O=C(Cc1cn2ccsc2n1)OCc1ccccc1	7.08µM*	15.1%	6.3%	-3.1%	5.01µM*	-1.2%	-8.3%	-68.7%
COC(=O)COc1ccc(S(=O)(=O)N2CCOCC2)cc1	-1.0%	-12.9%	1.0%	0.8%	3.7%	3.2%	0.3%	-0.6%
CCn1cc(C(=O)N[C@H](C(=O)NCCCN2CCOCC2)C(C)C)c(=O)c2cc3c(cc21)OCO3	12.5%[46.1 µM]	-1.9%	.	?	27.1%[46.1 µM]	6.6%	.	-4.2%
O=C(CSc1nnc(NC(=O)c2c(F)cccc2F)s1)Nc1ccc(F)cc1	8.8%	35.4%[activator]	.	0.7%	10.4%	-3.8%	.	0.8%
CCC(C(=O)OCC(=O)Nc1cccc(C(C)=O)c1)c1ccccc1 (stereo not given)	11.4%[46.1 µM]	-28.3%	.	-0.6%	10.3%[46.1 µM]	1.2%	.	.
CCC1S/C(=N/N=C/c2cccs2)NC1=O (stereo not given)	8.0%	19.5%	-5.4%	-1.1%	14.0%	-27.5%	-8.5%	-8.3%
CC(C)C1Oc2ccccc2N(CC(=O)N(C)C2CCCCC2)C1=O (stereo not given)	23.5%[46.1 µM]	0.6%	.	-1.5%	-9.1%[46.1 µM]	-2.8%	.	-6.0%
O=C(O)CCNS(=O)(=O)c1ccc2c(c1)OCCCO2	.	0.0%	.	-0.5%	.	19.9%	.	5.6%
CC(=O)Nc1ccc(Cl)cc1C1COC(=O)C1=N (stereo not given)	-7.1%	-17.6%	-2.8%	3.2%	13.0%	-4.4%	-13.2%	-4.0%
CC(C)c1nc(SCc2ccccn2)c2c(=O)n(C)c(=O)n(C)c2n1	.	?	-4.0%	3.9%	.	12.2%	-19.1%	-119.6%

High-throughput results as filed in PubChem BioAssay.
